Screening data from PubChem BioAssay.
MT1-MMP act inh – blocks activation of human MT1-MMP; GFP/RFP ratio change, % at 20 µM; HT1080 RFP-PRO-GFP cells, GFP/RFP ratio fluorescence, overnight; percent of plate control window, DMSO zero; AID 651647; hit rate 0.061% among 360,000;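 active = GFP/RFP ratio change of at least 30% with cell ATP level not reduced by more than half and red fluorescence within 50% of control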; also: strong numbers were not always called active
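Assay system – RFP-PRO-GFP reporter HT1080 cells · Compound dosing – single dose of 20 µM compound, 1% DMSO final · Incubation – overnight compound exposure at 37 °C · Measure – GFP/RFP fluorescence ratio · Benchmarks – DMSO wells and RFP-L50D-GFP cells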
HIV Env fusion – HIV envelope-mediated fusion inhibition; hit rate 1.1% among 360,000; HeLa-JRFL Env/CEM21 cell fusion, luciferase; inhibition, % at 12.3 µM;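 active = mean replicate inhibition score of at least 50 and every replicate individually at or above 50; inconclusive = only one of the two criteria met; inactive = mean below 50 and not all replicates reaching 50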;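 also: 0% = plate neutral controls and 100% = maraviroc near 300 nM; one replicate is shown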
Rce1 inhib – yeast Ras-converting enzyme inhibition; Q03530; yeast membranes, quenched prenylated peptide cleavage fluorescence; calls only; hit rate 0.27% among 290,000;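 active = fall in fluorescence gain of 50% or more versus controls, with final raw signal at or below 3038400; inconclusive = same 50% fall but final raw signal above 3038400; inactive = fall in fluorescence gain under 50%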;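 also: plate controls were neutral control wells for no effect and wells lacking membranes for full effect; tested at 10 µM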
Target sequence (Q03530 whole entry, looked up): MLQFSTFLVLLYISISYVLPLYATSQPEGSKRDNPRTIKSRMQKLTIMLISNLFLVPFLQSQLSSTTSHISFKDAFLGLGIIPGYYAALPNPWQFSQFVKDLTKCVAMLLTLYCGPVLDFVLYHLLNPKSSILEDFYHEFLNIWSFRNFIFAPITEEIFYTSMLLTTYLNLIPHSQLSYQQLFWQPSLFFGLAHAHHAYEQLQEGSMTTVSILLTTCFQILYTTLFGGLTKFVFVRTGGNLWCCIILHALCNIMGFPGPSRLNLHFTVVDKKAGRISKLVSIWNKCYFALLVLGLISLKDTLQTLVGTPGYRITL
eIF4H FP inh – inhibitors of RNA binding by human eIF4H | eIF4H fluorescence polarization binding assay | hit rate 0.94% among 290,000 | AID 2012 | inhibition, % at 35 µM;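 active = 50% or more with normal probe brightness, or confirmed in later tests; inconclusive = above 50% with abnormal brightness, or retests that disagree; inactive = below 50% or failed in later tests; about a fifth of its hits are not listed in these tables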;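 also: calls also rest on retests at 20 µM and on dose response follow-up; 0% = protein and probe with vehicle and 100% = probe without protein; strong numbers were not always called active; many hits fall short of the cut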
PABP FP inh – blocks human PABP binding to poly(A) RNA | fluorescence polarization | inhibition, % at 35 µM | hit rate 1% among 290,000 | AID 2014;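 active = 50% or more with normal probe brightness, or confirmed in later tests; inconclusive = above 50% with abnormal brightness, or retests that disagree; inactive = below 50% or failed in later tests; about a fifth of its hits are not listed in these tables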;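 also: calls also rest on retests at 20 µM and on dose response follow-up; controls were probe without protein and protein plus probe with vehicle; some compounds called inactive have numbers as strong as hits; many hits fall short of the cut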
UUG fidelity – alters start codon recognition fidelity in yeast | S. cerevisiae UUG-firefly luciferase reporter, luminescence/redox ratio | activity score, % at 18.7 µM | hit rate 0.13% among 350,000 | AID 602363;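 active = replicate mean at a twofold rise or more, about +100% in these data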;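 also: firefly luciferase made from a UUG start codon reports start codon fidelity; reporter light over untreated wells divided by growth signal over untreated wells; some hits fall short of that in this replicate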
CSC inhib – blocks cancer stem cells. cancer stem cell-like cells viability, luminescence. hit rate 1.1% among 300,000. inhibition, % at 7.5 µM. AID 2717;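 active = mean at 75% or more and at least half the replicates too; inconclusive = mean and replicates disagree; tested in HMLE shEcad cells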;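 also: 0% = median of negative and 100% = median of positive control wells; the first replicate is given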
MT1-MMP act inh RFP – second read-out of MT1-MMP act inh, no call of its own (marks repeat the call); RFP signal change, %; measured here: RFP expression control read;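 0 = vehicle wells; hits needed this value within 50% of zero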
Numbers without * were called inactive; i = inactive; ? = inconclusive; · = not tested or not shown; + = active, no number. Not all compounds are listed; count on the stated rates, not on these rows.

Each structure is followed by: MT1-MMP act inh | MT1-MMP act inh RFP | HIV Env fusion | Rce1 inhib | eIF4H FP inh | PABP FP inh | UUG fidelity | CSC inhib
COCc1cc(C)nc(OCC(=O)N/N=C/c2ccc(C)cc2)c1C#N
 : 4 | 3 | -25 | i | 8 | 1 | · | 37
Cc1ccc(C)c(N2CCN(C(=O)Cn3ncc4c([nH]c5ccc(C)cc54)c3=O)CC2)c1
 : 2 | 0 | 2 | i | · | · | -11 | -10
COc1cc2c(C#N)c(N3CCCCC3)nc(N)c2c(N)n1
 : -12 | 5 | · | + | 91* | 102* | -17 | -7
COc1cc(C(=O)Nc2nc(-c3cc(C)ccc3C)c(C)s2)ccc1OCC(=O)Nc1ccc(F)cc1
 : -13 | -15 | 39 | i | 8 | -13 | 0 | 4
CSc1nsc(SC)c1C(=O)O
 : -2 | -3 | 2 | i | 4 | 4 | · | -1
COc1ccccc1NC(=O)CN(Cc1ccco1)C(=O)c1ccc(Cl)nc1
 : 0 | 1 | 4 | i | 0 | 15 | · | 8
COC(=O)c1[nH]nc(C(=O)OC(C)(C)C)c1-c1ccccc1
 : 4 | 0 | 8 | i | -1 | -16 | · | 7
CC1CN(C(=O)C(Sc2ccccc2)c2ccccc2)CC(C)O1 (stereo unspecified)
 : 1 | 1 | 34 | i | 2 | 0 | 0 | -16
CC(C)C[C@H](NC(=O)N1CCn2c1nc1ccccc12)C(=O)NCC1CCCO1 (stereo partly specified)
 : -5 | -1 | 6 | i | · | · | -11 | -17
c1ccc(N2CCN(c3ncccn3)CC2)cc1
 : · | · | · | i | 15 | 6 | -3 | -14
CCc1nc2ccc(C(=O)NCCOc3ccc(OC)cc3)cn2c1N(C)C(=O)COc1ccccc1
 : -5 | -2 | 8 | · | · | · | -4 | ·
COc1cc(/C=N/Nc2ccc(F)cc2F)cc(OC)c1OC
 : -3 | -2 | -4 | i | -4 | -3 | · | 70
Cc1cc(C)c(C#N)c(SCc2ccccc2C)n1
 : 3 | 5 | -14 | i | 8 | -5 | · | 17
COc1cc(N)c(Cl)cc1C(=O)OCC(=O)Nc1cccnc1Cl
 : 1 | 0 | 11 | i | · | · | -19 | -1
CCNc1c(N)c(=O)oc2ccccc12
 : 4 | 2 | · | i | 0 | -4 | -25 | -12
Clc1nc(NC2CCCC2)nc(N2CCOCC2)n1
 : 2 | -11 | 2 | i | -11 | -2 | -11 | -10
COc1cccc(-n2c(SCC(=O)Nc3sc4c(c3C(N)=O)CCC4)nc3ccccc3c2=O)c1
 : -2 | -5 | -26 | i | -3 | 5 | -15 | -3
COC(=O)c1ccc(C(=O)OC)c(NC(=O)CS(=O)(=O)Cc2ccccc2)c1
 : 1 | 3 | · | i | 6 | 17 | -4 | 1
COc1ccccc1-c1noc(CCC(=O)NC2CCCCC2)n1
 : -1 | -1 | 14 | i | -10 | -6 | -8 | -4
O=C1c2ccccc2C(=O)N1Cc1ccc2c(c1)OCO2
 : -1 | 1 | -6 | i | -7 | -1 | 6 | -15
CC1(C)Cc2c(c(-c3ccccc3)[nH]c(=O)c2C#N)CO1
 : 3 | 5 | · | i | 0 | -9 | -14 | -14
C[C@@H](OC(=O)c1[nH]cnc1C(=O)NCc1ccc(CNC(=O)OC(C)(C)C)cc1)c1ccccc1
 : -8 | -20 | 15 | · | · | · | -3 | ·
FC(F)(F)c1cccc(OCc2noc(-c3ccsc3)n2)c1
 : 4 | 2 | 4 | i | -4 | 1 | · | -1
CC(=O)c1cccc(NC(=O)c2ccc(C(=O)Nc3cccc(C(C)=O)c3)nc2)c1
 : -1 | -1 | -1 | i | 4 | -1 | · | 7
O=C(NCCN1CCOCC1)C(=O)NCC1OCCN1S(=O)(=O)c1cc(F)ccc1F (stereo unspecified)
 : -2 | 2 | · | i | -5 | -12 | 3 | -4
CS(=O)(=O)Nc1ccc(Br)cc1C(=O)c1ccccc1
 : -4 | 1 | -53 | i | 8 | 7 | 6 | 7
CNS(=O)(=O)c1cnccc1N1CCN(c2cccc(C(F)(F)F)c2)CC1
 : 5 | 3 | · | · | -8 | -13 | -11 | -9
COCCNCC(=O)N1CCCCCC1
 : 0 | 5 | 19 | i | 2 | -8 | · | -6
CC(=O)Nc1ccc(S(=O)(=O)NCc2ccc(C)cc2)cc1
 : -1 | 1 | -23 | i | -4 | 5 | 4 | ·
CCOC(=O)N1CCC(N(CCN(C)C)C(=S)Nc2ccccc2C)CC1
 : 2 | 3 | -15 | i | -1 | -1 | · | 12
CC(=O)c1ccc(NC(=S)Nc2cccc3ccccc23)cc1
 : 0 | 5 | -5 | i | 9 | 14 | -22 | 9
COc1ccccc1NC(=O)c1cc(-c2ccc(C)o2)nc2ccccc12
 : -3 | -4 | -1 | i | -4 | -4 | -13 | ·
CCC(C)(C)NC(=O)C(C(C)C)N(CC1CCCO1)C(=O)CNS(=O)(=O)c1ccc(F)cc1 (stereo unspecified)
 : -1 | 1 | 3 | i | -1 | -6 | -1 | -4
C/C(=N\NC(=O)C(C)n1nc(C)c([N+](=O)[O-])c1C)c1ccccc1O (stereo unspecified)
 : 2 | 7 | 19 | i | -6 | 11 | -9 | 15
CCCCNc1c(-c2ccc(-c3ccc(C(C)=O)cc3)c(OC)c2)nc2cc(C)ccn12
 : -3 | -16 | -8 | · | · | · | -14 | ·
CCOC(=O)CC1C(=O)NCCN1Cc1cccs1 (stereo unspecified)
 : 2 | 8 | 5 | i | -6 | 16 | -6 | 2
COC(=O)C1CN(C(=O)COc2cccc(C)c2C)c2ccccc2O1 (stereo unspecified)
 : -2 | 3 | 11 | i | -9 | 3 | 13 | -17
CSc1ccccc1NC(=S)NC1CCCC1
 : 3 | 4 | -18 | i | 6 | 8 | -25 | -15
COc1cccc(/C=N/Nc2ncccc2[N+](=O)[O-])c1OC
 : 2 | 0 | ? | i | 1 | -13 | -88 | 23
Cc1ccc(-c2nn(-c3ccc(F)cc3)cc2C(=O)NCC2CCCO2)cc1 (stereo unspecified)
 : -2 | 0 | -12 | i | · | · | 3 | 4
CCCCn1c(=O)[nH]c(=O)c2c1nc(-c1cc3c(cc1Br)OCO3)n2C
 : -1 | 0 | 0 | i | 0 | 8 | · | 0
CCOC(=O)c1cccc(NC(=O)/C=C/c2ccc([N+](=O)[O-])cc2)c1
 : -2 | -20 | 36 | i | 6 | 3 | · | 29
C=CC[C@@H](CC(=O)N(CCO)Cc1ccccc1)C(=O)NC[C@@H](OC(=O)[C@@H](CC=C)Cc1ccc(F)cc1)c1ccccc1
 : -23 | -22 | 26 | · | · | · | 8 | -2
OC/C(Br)=C(\Br)CO
 : 0 | 5 | · | · | · | · | -4 | -10
C[C@H]1CC[C@H]2C(=O)N[C@H](Cc3ccccc3)C(=O)N2[C@@H]1c1ccccc1
 : · | · | · | · | -3 | 0 | · | 2
O=C(c1cccn(Cc2ccc(C(F)(F)F)cc2)c1=O)N1CCOCC1
 : 4 | 4 | 5 | i | 4 | 1 | -9 | -12
COc1ccc2[nH]c(=O)c(CN(C)C(=O)C3CCCCC3)cc2c1
 : 5 | -1 | · | i | 5 | 2 | -17 | 6
CC(=O)c1cc(CN2CCN(CC=C(C)C)C(CCO)C2)cs1 (stereo unspecified)
 : 2 | 3 | -32 | i | -8 | -4 | -16 | -9
O=C(c1ccc(F)cc1)N1CCN(c2cc(=O)[nH]nc2-c2ccccc2)CC1
 : 6 | 6 | -31 | i | -8 | -18 | -12 | 12
O=C(Oc1nsnc1N1CCOCC1)N1CCOCC1
 : -3 | -2 | · | i | -2 | 4 | 0 | 0

The list continues:
Each structure is followed by: MT1-MMP act inh | MT1-MMP act inh RFP | HIV Env fusion | Rce1 inhib | eIF4H FP inh | PABP FP inh | UUG fidelity | CSC inhib
Cc1cc(-c2ccncc2)n2ncc(-c3ccccc3)c2n1
 : 1 | 2 | -153 | · | · | · | -30 | ·
Cc1ccsc1CN1CCN(c2ccccn2)CC1
 : 4 | 1 | -21 | i | 8 | -4 | -10 | 1
Cc1c(F)cccc1NC(=O)CSCC(=O)Nc1ccccc1
 : 2 | 4 | · | i | 2 | -9 | · | 0
CCCc1nc2ccccc2c(NC(=O)CN(CC)CC)c1CC
 : 2 | 4 | 2 | i | 8 | 7 | · | 0
CCc1ccc(OC(=O)c2cncc(Br)c2)cc1
 : -2 | -2 | 20 | i | 19 | -11 | -13 | -18
CC(C)N1C(=O)S/C(=C/c2ccc(Sc3nc4ccccc4[nH]3)o2)C1=O
 : -1 | -28 | 42 | i | 0 | 3 | · | 12
CN(C(=O)c1cccc(NC(=O)Cc2cccc([N+](=O)[O-])c2)c1)C1CC1
 : 1 | -4 | 13 | · | · | · | 1 | -7
Cc1ccc(S(=O)(=O)NCc2ccccc2)cc1C(=O)N(C)CC(=O)Nc1c(Cl)cccc1Cl
 : 2 | -1 | 0 | i | · | · | · | 1
Cc1cccc(NC(=O)Nc2c(C)n(C)n(-c3ccccc3)c2=O)c1
 : -1 | 3 | 1 | i | 7 | 10 | -5 | -13
CC(C)c1ccc(NS(=O)(=O)c2ccc3[nH]cc(C(=O)N4CCC(C(N)=O)CC4)c(=O)c3c2)cc1
 : -1 | 2 | · | i | 21 | -2 | 4 | 16
O=C(O)CCc1[nH]c2ccccc2c1Sc1ccccc1
 : 2 | 4 | -5 | i | 1 | -23 | -14 | 13
CC(Cl)C(=O)c1c(N)n(C)c(=O)n(C)c1=O (stereo unspecified)
 : -1 | 4 | · | i | -14 | 0 | · | -11
CC(=O)NC1(C(=O)O)CCCC1
 : 0 | 4 | -1 | i | -12 | -16 | -20 | -11
O=C(Nc1ccc(Cl)cc1)[C@@H]1[C@@H]2C(=O)N(c3ccc(Cl)cc3Cl)C(=O)[C@@H]2[C@H]2C=CC=NN21
 : · | · | · | i | 2 | 14 | · | 9
COc1cccc(C2=NOC(C(=O)Nc3c(C)n(C)n(-c4ccccc4)c3=O)C2)c1 (stereo unspecified)
 : 6 | 5 | -1 | i | 2 | 5 | -5 | -11
O=C(c1ccccc1)N1CCN(C2CCCCC2)CC1
 : 8 | 9 | · | i | 11 | -13 | -13 | -8

Filtered by structure: those above with an NH in an aromatic ring
Each structure is followed by: MT1-MMP act inh | MT1-MMP act inh RFP | HIV Env fusion | Rce1 inhib | eIF4H FP inh | PABP FP inh | UUG fidelity | CSC inhib
Cc1ccc(C)c(N2CCN(C(=O)Cn3ncc4c([nH]c5ccc(C)cc54)c3=O)CC2)c1
 : 2 | 0 | 2 | i | · | · | -11 | -10
COC(=O)c1[nH]nc(C(=O)OC(C)(C)C)c1-c1ccccc1
 : 4 | 0 | 8 | i | -1 | -16 | · | 7
CC1(C)Cc2c(c(-c3ccccc3)[nH]c(=O)c2C#N)CO1
 : 3 | 5 | · | i | 0 | -9 | -14 | -14
C[C@@H](OC(=O)c1[nH]cnc1C(=O)NCc1ccc(CNC(=O)OC(C)(C)C)cc1)c1ccccc1
 : -8 | -20 | 15 | · | · | · | -3 | ·
CCCCn1c(=O)[nH]c(=O)c2c1nc(-c1cc3c(cc1Br)OCO3)n2C
 : -1 | 0 | 0 | i | 0 | 8 | · | 0
COc1ccc2[nH]c(=O)c(CN(C)C(=O)C3CCCCC3)cc2c1
 : 5 | -1 | · | i | 5 | 2 | -17 | 6
O=C(c1ccc(F)cc1)N1CCN(c2cc(=O)[nH]nc2-c2ccccc2)CC1
 : 6 | 6 | -31 | i | -8 | -18 | -12 | 12
CC(C)N1C(=O)S/C(=C/c2ccc(Sc3nc4ccccc4[nH]3)o2)C1=O
 : -1 | -28 | 42 | i | 0 | 3 | · | 12
CC(C)c1ccc(NS(=O)(=O)c2ccc3[nH]cc(C(=O)N4CCC(C(N)=O)CC4)c(=O)c3c2)cc1
 : -1 | 2 | · | i | 21 | -2 | 4 | 16
O=C(O)CCc1[nH]c2ccccc2c1Sc1ccccc1
 : 2 | 4 | -5 | i | 1 | -23 | -14 | 13
